Bioassay records deposited in PubChem by several laboratories.
Autofluor counter: counter-screen for toxin protease inhibitors: compound fluorescence. compound autofluorescence counterscreen, microsphere flow cytometry; hits give high values. fluorescence intensity (test concentration not listed). 3.1% of 360,000 active;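 active = at least 3 SD above the mean of all compounds, about 16000 in these data; inconclusive = too few beads counted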;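 note: 100 nL of 1 mM stock went into each well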
Sa ugtP lethal: growth inhibition of ugtP-null S. aureus, primary screen, RN4220 ugtP deletion, OD600. 16 h; some inactives read as strong as hits. growth inhibition, % (no concentration beside the values). 0.54% of 330,000 active. AID 1259309, 2017;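 active = z-score under -3 and OD600 up to 0.15 on both plates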;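 note: plate controls were untreated wells for no effect and antibiotic for full effect; wells of about 80 µL received 100 nL stock; the first replicate is given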
PrP UTR inh: inhibition of PrP 5' UTR reporter expression; cell-based PrP 5' UTR mRNA reporter, plate reader; inhibition, % (no concentration beside the values); 0.35% of 340,000 active; AID 488862, 2010;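 active = every replicate at 50% or more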;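 note: 0 = median of the neutral control wells; tested in H4 reporter cells; numbers are from one replicate; inactives centre near -14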
RN4220 kill: growth inhibition of S. aureus RN4220, primary screen, OD600 | inhibition, % (concentration not given with the values) | 16 h | 0.33% of 330,000 active;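 active = z-score of -3 or lower and OD600 up to 0.18 on both plates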;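 note: plate controls were untreated cells for no effect and reference antibiotic for full effect; stock transfer was 100 nL into about 80 µL; one replicate is shown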
BJeLR lethal: MLPCN primary cell-based screen for lethality selective to Ras in HRASV12 cells. inhibition, % (concentration not given with the values). BJeLR (HRASV12) viability, CellTiter-Glo ATP luminescence, 48 h; reference of the scale not given here. 0.17% of 300,000 active. AID 1554, 2009;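 active = replicate mean above 50%; inconclusive = above 50% but judged a plate artefact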;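 note: 50 nL library stock added to about 25 µL; numbers are from one replicate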
Mtb hypoxia inh: PubChem AID 1159583 | M. tuberculosis hypoxia-regulated fluorescent reporter, fluorescence | fluorescence inhibition, % (test concentration not listed) | 0.1% of 300,000 active;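 active = 35 to 45% if threefold the growth effect, above 45% if 1.5-fold the growth effect; inactive = the rest, general growth blockers included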;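 note: wells of about 50 µL received 100 nL stock; 0% = vehicle wells and 100% = reference inhibitor wells; whole bacteria with a GFP reporter of the hypoxia response; strong numbers were not always called active; many hits fall short of the cut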
Mtb hypoxia inh growth: also measured in Mtb hypoxia inh; calls as there; growth inhibition, %; measured here: M. tuberculosis growth (absorbance);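 0% = vehicle and 100% = reference antibiotic; read after six days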
* marks the source's active call; other numbers are inactive results.

Start of the data: the first 3 compounds, to show the layout:
`CCCCc1n[nH]c2c1C(=O)CC(C)(C)C2` gave Autofluor counter 5523, Sa ugtP lethal -0.6, PrP UTR inh -14.5, RN4220 kill 3.3 and BJeLR lethal 8.4.
Screening COc1ccc(CNC(=O)c2nnn(-c3cccc(C(F)(F)F)c3)c2N)cc1 returned Autofluor counter 3348, Sa ugtP lethal 5.7, PrP UTR inh -2.3, RN4220 kill 5.5, BJeLR lethal -2.9, Mtb hypoxia inh 2.5 and Mtb hypoxia inh growth 11.7.
CCc1n(CC(O)COC2CCCCC2)c2ccccc2[n+]1C (configuration not stated) was read as Autofluor counter 3521, Sa ugtP lethal 7.0, PrP UTR inh -41.3, RN4220 kill 6.7, BJeLR lethal 6.4, Mtb hypoxia inh 9.2 and Mtb hypoxia inh growth -0.2.

The whole of this part, from the first entry:
`CCCCc1n[nH]c2c1C(=O)CC(C)(C)C2` gave Autofluor counter 5523, Sa ugtP lethal -0.6, PrP UTR inh -14.5, RN4220 kill 3.3 and BJeLR lethal 8.4.
Screening COc1ccc(CNC(=O)c2nnn(-c3cccc(C(F)(F)F)c3)c2N)cc1 returned Autofluor counter 3348, Sa ugtP lethal 5.7, PrP UTR inh -2.3, RN4220 kill 5.5, BJeLR lethal -2.9, Mtb hypoxia inh 2.5 and Mtb hypoxia inh growth 11.7.
CCc1n(CC(O)COC2CCCCC2)c2ccccc2[n+]1C (configuration not stated) was read as Autofluor counter 3521, Sa ugtP lethal 7.0, PrP UTR inh -41.3, RN4220 kill 6.7, BJeLR lethal 6.4, Mtb hypoxia inh 9.2 and Mtb hypoxia inh growth -0.2.
CC1(C)CC2CN(C(=O)Cc3ccccc3)C(C)(C2)C1 (configuration not stated) was read as Autofluor counter 2593, Sa ugtP lethal 1.3, PrP UTR inh -19.5, RN4220 kill 3.6, BJeLR lethal -2.7, Mtb hypoxia inh 2.4 and Mtb hypoxia inh growth 9.2.
For Cc1ccc(S(=O)(=O)N/N=C/c2ccc(O)cc2O)cc1[N+](=O)[O-] the results were Autofluor counter 4361, PrP UTR inh -14.0 and BJeLR lethal 4.0.
`O=C(NN=Cc1ccc([N+](=O)[O-])cc1)c1ccc(NS(=O)(=O)c2cccs2)cc1` gave Sa ugtP lethal 5.4, RN4220 kill 4.7, Mtb hypoxia inh 10.0 and Mtb hypoxia inh growth 7.2.
`CCC(C)(C)C1CCc2[nH]nc(C(=O)NCCN3CCOCC3)c2C1` (configuration not stated) gave Autofluor counter 3688, Sa ugtP lethal -0.4, PrP UTR inh -6.6, RN4220 kill 2.2, Mtb hypoxia inh 4.7 and Mtb hypoxia inh growth 10.5.
Screening CC(=O)c1cc2c(cc1NC(=O)c1cc3nc(C(C)C)cc(C(F)(F)F)n3n1)OCO2 returned Autofluor counter 3186, Sa ugtP lethal 0.4, PrP UTR inh -15.0, RN4220 kill 9.8, BJeLR lethal 5.8, Mtb hypoxia inh -2.8 and Mtb hypoxia inh growth 8.5.
`COc1ccc(NC(=O)NNC(=O)c2ccc(-c3ccccc3)cc2)c(OC)c1` gave Autofluor counter 6751, Sa ugtP lethal 3.5, PrP UTR inh -0.2, RN4220 kill -2.5, BJeLR lethal -7.2, Mtb hypoxia inh 2.4 and Mtb hypoxia inh growth 5.8.
Screening COc1cccc(-c2c(-c3cc(OC)cc(OC)c3)n(C)c3ccc(-c4ccc(OC)nc4)cc23)c1 returned Autofluor counter 3809, Sa ugtP lethal 11.9, PrP UTR inh -13.1, RN4220 kill -2.0, Mtb hypoxia inh -5.0 and Mtb hypoxia inh growth 2.7.
`Clc1ccc2nc(-c3ccc4c(c3)OCO4)cn2c1` gave Autofluor counter 4641, Sa ugtP lethal -3.0, PrP UTR inh 24.3, RN4220 kill 8.4, BJeLR lethal 12.4, Mtb hypoxia inh 23.9 and Mtb hypoxia inh growth 6.3.
CCN1C(=O)[C@@H]2[C@@H](c3ccc(-c4ccc(C(C)=O)cc4)cc3)N3CCCC[C@@]3(C(=O)OC)[C@@H]2C1=O was read as Autofluor counter 4263, PrP UTR inh -7.1 and BJeLR lethal 2.9.
Screening COc1ccnc(Oc2ccc(F)cc2)c1C(=O)N/C=N/OCc1ccc(F)cc1Cl returned Autofluor counter 7679, Sa ugtP lethal -1.1, PrP UTR inh -30.4, RN4220 kill 9.9, BJeLR lethal -1.9, Mtb hypoxia inh 5.8 and Mtb hypoxia inh growth 4.3.
O=C(CSc1nnc(SCc2ccc(Cl)cc2)s1)N/N=C/c1ccccc1C(=O)O was read as Autofluor counter 3478, PrP UTR inh -8.1 and BJeLR lethal -3.1.
CN(CCC#N)Cc1cc(=O)oc2ccc3ccccc3c12 was read as Autofluor counter 6324, Sa ugtP lethal 3.9, PrP UTR inh -41.3, RN4220 kill 0.8, BJeLR lethal -6.7, Mtb hypoxia inh -4.4 and Mtb hypoxia inh growth -1.7.
CCCCCN(CCCCC)C(=O)C(CCC(=O)O)NC(=O)c1ccc(Cl)c(Cl)c1 (configuration not stated) was read as Autofluor counter 6131, Sa ugtP lethal -2.9, PrP UTR inh -11.0, RN4220 kill 11.8, BJeLR lethal 9.5, Mtb hypoxia inh 3.5 and Mtb hypoxia inh growth 12.8.
`O=C1OC(N2CCN(C(=O)C3CCCO3)CC2)c2ccccc21` (configuration not stated) gave Autofluor counter 3894, Sa ugtP lethal -2.5, PrP UTR inh 7.0, RN4220 kill 32.1 and BJeLR lethal 3.2.
O=C(NC(=S)Nc1ccc(S(=O)(=O)N2CCCCC2)cc1)c1cccs1 was read as Autofluor counter 6957, Sa ugtP lethal 66.2, PrP UTR inh -23.1, RN4220 kill 7.9, BJeLR lethal -0.1, Mtb hypoxia inh -3.2 and Mtb hypoxia inh growth -2.6.
Screening COC(=O)c1ccc(CSC2=NC[C@@H]3[C@@H]4C(=O)N(Cc5ccccc5)C(=O)[C@@H]4[C@](Cc4ccccc4)(C(=O)OC)N23)cc1 returned Autofluor counter 4275, Sa ugtP lethal -6.3, PrP UTR inh 6.3, RN4220 kill -1.0, Mtb hypoxia inh -5.8 and Mtb hypoxia inh growth 4.3.
O=C(/C=C/c1ccc(OC2CSC2)cc1)c1ccccc1 was read as Autofluor counter 4515, Sa ugtP lethal 4.5, PrP UTR inh -72.0, RN4220 kill 12.1, BJeLR lethal 4.0, Mtb hypoxia inh 0.8 and Mtb hypoxia inh growth 9.4.
`COc1c(C)cccc1C(=O)NC(=S)Nc1cccc2nsnc12` gave Autofluor counter 2256, Sa ugtP lethal -1.3, PrP UTR inh 5.7, RN4220 kill 4.5, BJeLR lethal 4.6, Mtb hypoxia inh 0.1 and Mtb hypoxia inh growth 17.5.
For COc1ccc(C=NN(C(C)=O)c2nc(-c3ccc(C)cc3)cs2)cc1 the results were Sa ugtP lethal 0.8, RN4220 kill 3.5, Mtb hypoxia inh 11.3 and Mtb hypoxia inh growth 1.1.
C/C(=N\Nc1nc2c(s1)CCCC2)c1ccccc1 was read as Autofluor counter 3581, PrP UTR inh -80.4 and BJeLR lethal -6.8.
`CCSc1nnc(NC(=O)c2ccc(C)cc2)s1` gave Autofluor counter 7988, Sa ugtP lethal -18.9, PrP UTR inh -55.1, RN4220 kill 20.8, BJeLR lethal 6.6, Mtb hypoxia inh 9.6 and Mtb hypoxia inh growth 6.5.
For CN1CCN(C2=C(Cl)C(=O)c3ccccc3C2=O)CC1 the results were Autofluor counter 3199, Sa ugtP lethal 16.5, PrP UTR inh -19.4, RN4220 kill 14.5, Mtb hypoxia inh 25.5 and Mtb hypoxia inh growth 13.5.
`CCc1nnnn1-c1ccc([N+](=O)[O-])cc1C` gave Autofluor counter 4941, Sa ugtP lethal -0.7, PrP UTR inh -11.1, RN4220 kill 2.2, BJeLR lethal -4.3, Mtb hypoxia inh 4.1 and Mtb hypoxia inh growth -0.5.
Screening Cc1nc(N2CCN(c3ccccc3)CC2)[nH]c(=O)c1C returned Autofluor counter 3907, Sa ugtP lethal 6.6, PrP UTR inh -27.4, RN4220 kill 0.1, BJeLR lethal 7.4, Mtb hypoxia inh 5.6 and Mtb hypoxia inh growth -5.8.
`CCN(CC)S(=O)(=O)c1ccc(=O)n(CC(=O)N2CCCc3cc(C)ccc32)c1` gave Autofluor counter 3669, Sa ugtP lethal -0.4, PrP UTR inh -10.0, RN4220 kill -2.6, Mtb hypoxia inh -2.5 and Mtb hypoxia inh growth 2.4.
CCOC(=O)C1CCN(C(=O)c2ccc(OCC(=O)Nc3ccc(OCC)cc3)c(OC)c2)CC1 was read as Autofluor counter 5809, Sa ugtP lethal 0.9, PrP UTR inh -13.1, RN4220 kill 1.9, BJeLR lethal -11.3, Mtb hypoxia inh 1.5 and Mtb hypoxia inh growth -3.9.
Screening CCOc1ccc(C(=O)NCC(=O)NCC(c2ccc(OC)cc2)N2CCCC2)cc1 (configuration not stated) returned Autofluor counter inconclusive, Sa ugtP lethal 1.4, PrP UTR inh -5.5, RN4220 kill 1.1, BJeLR lethal 6.4, Mtb hypoxia inh 1.8 and Mtb hypoxia inh growth -0.5.
Screening COc1cc(/C=C2\NC(=S)N(C)C2=O)ccc1OCc1cccc(F)c1 returned Autofluor counter 3589, Sa ugtP lethal -0.1, PrP UTR inh -28.5, RN4220 kill 14.8, BJeLR lethal -2.7, Mtb hypoxia inh -10.0 and Mtb hypoxia inh growth 0.4.
`O=C(NCc1cccs1)c1ccc(S(=O)(=O)N2CCOCC2)cc1` gave Autofluor counter 3929, Sa ugtP lethal 1.5, PrP UTR inh -21.6, RN4220 kill -0.8, BJeLR lethal 7.6, Mtb hypoxia inh -6.0 and Mtb hypoxia inh growth 12.5.
Screening CCc1nnc(NC(=O)CCCSc2nc3ccccc3[nH]2)s1 returned Autofluor counter 3875, Sa ugtP lethal 6.6, PrP UTR inh -18.4, RN4220 kill 4.1, BJeLR lethal 9.1, Mtb hypoxia inh -4.0 and Mtb hypoxia inh growth 3.3.
`O=C(NCc1ccccc1)C1=CC(c2ccccc2)CC(OCCCCO)O1` (configuration not stated) gave Sa ugtP lethal 3.8, RN4220 kill -0.2, Mtb hypoxia inh 7.3 and Mtb hypoxia inh growth 3.5.
`O=C(Nc1ccccc1Cl)c1cc(S(=O)(=O)N2CCCC(C(=O)O)C2)ccc1F` (configuration not stated) gave Autofluor counter 7975, Sa ugtP lethal 3.2, PrP UTR inh -8.8, RN4220 kill 0.3, BJeLR lethal -2.8, Mtb hypoxia inh 2.8 and Mtb hypoxia inh growth 0.5.
`COc1ccc(NC(=S)N2CCC(C(=O)c3ccc(C)cc3)CC2)cc1` gave Autofluor counter 3522, Sa ugtP lethal 5.0, PrP UTR inh -8.5, RN4220 kill -1.7, BJeLR lethal 3.9, Mtb hypoxia inh 6.6 and Mtb hypoxia inh growth 12.3.
`O=C(NNc1c(Cl)cc(Cl)cc1Cl)C1CCC1` gave Autofluor counter 2257, Sa ugtP lethal -0.6, PrP UTR inh -8.0, RN4220 kill 2.5, BJeLR lethal 6.3, Mtb hypoxia inh 4.8 and Mtb hypoxia inh growth 14.3.
N#C/C(=C\c1c(N2CCN(Cc3ccccc3)CC2)nc2ccccn2c1=O)S(=O)(=O)c1ccccc1 was read as Autofluor counter 5946, Sa ugtP lethal 2.1, PrP UTR inh -30.3, RN4220 kill 1.4, BJeLR lethal 5.9, Mtb hypoxia inh 14.4 and Mtb hypoxia inh growth 2.9.
Cc1ccc(CCNC(=O)c2nnc(CS(=O)(=O)c3ccccc3)o2)cc1 was read as Autofluor counter 5746, Sa ugtP lethal -2.9, PrP UTR inh -8.9, RN4220 kill -10.6, BJeLR lethal 0.4, Mtb hypoxia inh 3.2 and Mtb hypoxia inh growth 8.0.
Screening Cc1nn(C)c(Oc2ccccc2)c1CCNC(=O)CCl returned Autofluor counter 4034, Sa ugtP lethal 7.5, PrP UTR inh -3.8, RN4220 kill 1.5, BJeLR lethal -1.7, Mtb hypoxia inh 21.1 and Mtb hypoxia inh growth 23.8.
`COc1ccc(C(=O)Nc2ccc(F)cc2F)cc1OC` gave Autofluor counter 3802, Sa ugtP lethal -0.3, PrP UTR inh -7.5, RN4220 kill 1.5, BJeLR lethal -15.7, Mtb hypoxia inh 4.5 and Mtb hypoxia inh growth 0.9.
`C/C(=N\O)C(C)Oc1ccc(Cl)cc1` (configuration not stated) gave Autofluor counter 3422, PrP UTR inh -15.8 and BJeLR lethal 6.6.
For CCc1ccc(C(=O)O)cc1 the results were Autofluor counter 6775, Sa ugtP lethal 4.2, PrP UTR inh -6.2, RN4220 kill 1.7, BJeLR lethal 3.6, Mtb hypoxia inh 12.1 and Mtb hypoxia inh growth 15.9.
